KCNQ2 inh: KCNQ2 potassium channel inhibitors, primary screen, cell-based, CHO-K1, FluxOR thallium flux, B-score (AID 2156). O88943. 20 min; active compounds read low; only compounds with negative scores are shown here; some inactives read as strong as hits. B-score at 10 µM. 310,000 tested, 1.1% active;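 active = fluorescence ratio B-score at most minus 3 library SDs, with starting brightness B-score within 2 library SDs, cut at about -5.5 in these data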
Target sequence (O88943 whole entry, looked up): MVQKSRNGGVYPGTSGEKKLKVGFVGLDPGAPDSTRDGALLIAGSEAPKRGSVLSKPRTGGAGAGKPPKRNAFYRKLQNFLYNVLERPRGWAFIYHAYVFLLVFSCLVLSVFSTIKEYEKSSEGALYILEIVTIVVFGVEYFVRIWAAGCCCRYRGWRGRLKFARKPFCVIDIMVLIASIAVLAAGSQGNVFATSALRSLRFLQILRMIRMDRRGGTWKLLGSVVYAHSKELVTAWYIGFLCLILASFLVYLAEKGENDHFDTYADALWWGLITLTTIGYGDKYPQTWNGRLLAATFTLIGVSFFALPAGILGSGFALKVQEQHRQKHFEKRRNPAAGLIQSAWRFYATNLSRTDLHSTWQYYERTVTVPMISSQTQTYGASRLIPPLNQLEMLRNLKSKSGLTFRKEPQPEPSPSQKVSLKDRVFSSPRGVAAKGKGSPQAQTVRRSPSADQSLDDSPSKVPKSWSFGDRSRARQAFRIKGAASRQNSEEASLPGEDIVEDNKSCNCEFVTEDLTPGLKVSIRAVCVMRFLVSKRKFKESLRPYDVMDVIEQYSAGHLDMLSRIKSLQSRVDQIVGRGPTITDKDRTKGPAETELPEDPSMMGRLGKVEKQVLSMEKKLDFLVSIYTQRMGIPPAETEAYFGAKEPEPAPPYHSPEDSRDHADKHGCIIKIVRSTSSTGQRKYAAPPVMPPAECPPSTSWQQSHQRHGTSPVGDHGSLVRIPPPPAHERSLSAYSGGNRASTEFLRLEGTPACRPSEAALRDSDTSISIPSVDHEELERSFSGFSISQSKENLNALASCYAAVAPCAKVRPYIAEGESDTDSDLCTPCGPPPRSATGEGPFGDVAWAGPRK
KCNQ2 inh baseline: also measured in KCNQ2 inh; calls as there; B-score; measured here: initial fluorescence intensity artifact check;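 brightness before thallium and not channel activity; 0 = typical well and far values either way flag optical interference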
An asterisk follows results filed as active; i = inactive.

KCNQ2 inh baseline	KCNQ2 inh	SMILES
1.5	i	Cc1ccc(N2C(=O)C3C4CC(=O)C(c5ccccc54)C3C2=O)cc1 (stereo not drawn)
-0.17	i	O=C(O)c1cc(=O)c2cc(Cl)ccc2o1
1.37	i	CCOC(=O)c1cccc(NC(=O)CSc2nnc(-c3ccoc3C)n2CCOC)c1
0.25	i	CC(=O)NC12CC3CC(C1)CC(C(=O)Nc1nc4ccc(S(C)(=O)=O)cc4s1)(C3)C2
-1.37	i	COc1cccc(N(CC(=O)N2CCCCCC2)S(C)(=O)=O)c1
1.49	i	Cc1cc(C)cc(N(C(=O)C(F)(F)F)C(C(=O)NC2CCCCC2)c2cccs2)c1 (stereo not drawn)
0.72	i	COc1ccc(NC(=O)N(CCC(C)C)C(C)c2ccccn2)c(OC)c1 (stereo not drawn)
3.24	i	Cc1ccc(CCSc2ccc(F)cc2)cn1
0.14	i	CCOC(=O)c1sc(N2C(=O)C(O)=C(C(=O)c3ccco3)C2c2cccc([N+](=O)[O-])c2)nc1C (stereo not drawn)
-0.72	i	COCC(C)NC(=O)Cc1ccc(Cl)cc1 (stereo not drawn)
1.1	i	Cc1scc(C(=O)NCc2ccco2)c1-c1ccccc1
0.46	i	Cc1onc(-c2ccccc2Cl)c1C(=O)NCCN1CCOCC1
-0.45	i	CCOC(=O)c1c(NC(=O)CSc2nc3cc(Cl)ccc3s2)sc(C(C)=O)c1C
-0.04	i	CCOC(=O)C1=C(C)N=C2SC(C)C(=O)N2C1c1ccc(C(=O)OC)cc1 (stereo not drawn)
-0.43	i	Cn1c(SCC(=O)NCc2ccccc2)nc2c([nH]c3ccccc32)c1=O
-0.35	i	OCCC1CN(Cc2cccn2-c2ncccn2)CCN1Cc1ccccc1 (stereo not drawn)
-0.03	i	CCC(C)NC(=O)CN(c1cc(Cl)ccc1OC)S(C)(=O)=O (stereo not drawn)
0.87	i	COc1cc2ccccc2nn1
-0.66	i	COC(=O)c1ccc(C2C(C(=O)c3ccco3)=C(O)C(=O)N2c2cc(C)on2)cc1 (stereo not drawn)
-0.15	i	Cc1nc2ccccc2c2oc(C(=O)N3CCN(c4ccc([N+](=O)[O-])cc4)CC3)cc12
0.41	i	CC1CCN(S(=O)(=O)c2ccc(NC(=O)CSc3nnnn3C)cc2)CC1
-0.03	i	COc1ccc(/C=C2/SC(c3ccc(C)cc3)=NC2=O)cc1OC
3.72	i	CC(Cl)C(=O)Nc1cc(C(C)(C)C)nn1-c1ccccc1 (stereo not drawn)
0.35	i	Clc1ccc(CNc2ccc(CNc3ncn[nH]3)cc2)c(Cl)c1
0.52	i	O=C(c1ccccc1)c1ccccc1N1C(=O)C=CC1=O

The results go on.
KCNQ2 inh baseline	KCNQ2 inh	SMILES
-0.68	i	Cc1cc(C)cc(NC(=O)Cn2nnc(C(=O)NCCc3ccccc3)c2N)c1
0.34	i	CCN1CCN(CCNC(=O)c2ccc(/C=C3/Sc4ccccc4N(Cc4cccc(Cl)c4)C3=O)cc2)CC1
-0.59	i	COc1ccc2[nH]c(C)c(C(=O)CN(C)CC3OCCO3)c2c1
1.73	i	O=C(NN=C1CCN(Cc2ccccc2)CC1)c1ccccc1O
-0.16	i	COc1cc(SC)ccc1C(=O)Nc1nccs1
3.03	i	Cc1cc(O)c(C(=O)/C=C/c2ccc(C(C)C)cc2)c(=O)o1
-0.09	i	COc1cc(NC(=O)C2=CC(c3ccc(C)cc3)=NS(=O)(=O)N2C)cc(OC)c1OC
1.73	i	Cc1cnc(CNC(=O)CC2C(=O)NCCN2Cc2ccccc2F)cn1 (stereo not drawn)
-0.42	i	O=C(NCCC1=CCCCC1)c1ccc(Cl)c([N+](=O)[O-])c1
0.07	i	COc1ccc(S(=O)(=O)N2CCN(C)CC2)cc1NC(=O)c1ccccc1
0.64	i	O=[N+]([O-])c1ccccc1S(=O)(=O)Nc1cccc(-c2ccc(N3CCCC3)nn2)c1
-0.4	i	O=C(c1ccco1)N1CCN(C(=O)c2ccc(COc3ccc(F)cc3)o2)CC1
0.5	i	O=c1c2c3c(sc2n(CCN2CCCC2)c(=O)n1Cc1ccco1)CCCCC3
-0.89	i	O=C(c1cc(C2CC2)on1)N1CCOCC1
-0.48	i	O=C(O)CC(CNS(=O)(=O)c1ccccc1)c1ccccc1 (stereo not drawn)
0.7	i	CC(=O)c1ccc(-c2ccc(C(=O)N3CCN(c4ccc(F)cc4)CC3)o2)cc1
-0.57	i	CCNC(=O)CC1C(=O)N(c2ccc(F)cc2)C(=O)N1Cc1cccs1 (stereo not drawn)
0.09	i	Cc1ccc2oc3nc(C)c(C(=O)O)cc3c(=O)c2c1
-0.8	i	CCc1ccccc1NC(=O)CSc1nc2ccccc2nc1N1CCOCC1
0.08	i	COc1ccc(C(=O)OCCOc2cccc(Cl)c2)cc1S(=O)(=O)N1CCOCC1
0.12	i	CCC(C)c1ccc(NC(=O)c2cnn3c(C(F)F)cc(C)nc23)cc1 (stereo not drawn)
-0.04	i	CCOC(=O)N/N=C/C(Cl)=C/c1ccccc1
-0.6	i	CCOc1ccccc1NC(=O)c1cccc(S(=O)(=O)N(Cc2ccccc2)c2ccccc2OC)c1
0.62	i	O=C(CCSc1ccccn1)c1ccccc1
0.28	i	Cc1ccc(S(=O)(=O)N2CCCCC2)cc1NC(=O)CSc1ncn[nH]1

Some of the entries so far, in markdown.
| Compound | KCNQ2 inh baseline | KCNQ2 inh |
| --- | --- | --- |
| O=C(O)CC(CNS(=O)(=O)c1ccccc1)c1ccccc1 (stereo not drawn) | -0.48 | i |
| CC(=O)c1ccc(-c2ccc(C(=O)N3CCN(c4ccc(F)cc4)CC3)o2)cc1 | 0.7 | i |
| CCNC(=O)CC1C(=O)N(c2ccc(F)cc2)C(=O)N1Cc1cccs1 (stereo not drawn) | -0.57 | i |
| Cc1ccc2oc3nc(C)c(C(=O)O)cc3c(=O)c2c1 | 0.09 | i |
| CCc1ccccc1NC(=O)CSc1nc2ccccc2nc1N1CCOCC1 | -0.8 | i |
| COc1ccc(C(=O)OCCOc2cccc(Cl)c2)cc1S(=O)(=O)N1CCOCC1 | 0.08 | i |

Next part.
KCNQ2 inh baseline	KCNQ2 inh	SMILES
-0.7	i	Cc1nc(C)c(C(=O)N2CCCC(C(=O)c3ccc(Cl)cc3C)C2)s1 (stereo not drawn)
1.84	i	Cc1cc(C)c(S(=O)(=O)NCC(c2ccc3c(c2)OCO3)N2CCOCC2)c(C)c1 (stereo not drawn)
0.21	i	COc1cc(/C=C2/SC(=S)N(CC(=O)O)C2=O)ccc1OCC(=O)Nc1ccc(C)c(C)c1
0.25	i	C/C(=N\N=C1\NC(=O)CS1)c1cccs1
-0.77	i	Nc1c(S(=O)(=O)c2cccc(Cl)c2)c2nc3ccccc3nc2n1CCN1CCOCC1
-2.54	i	CCOC(=O)c1ccc(N2C(=O)CC(C3CCCO3)C2=O)cc1 (stereo not drawn)
0.16	i	O=C(N/N=C/c1cccc([N+](=O)[O-])c1)c1cccc2cc[nH]c12
0.95	i	CS(=O)(=O)c1ccc(C(=O)N2CCN(Cc3ccccc3)CC2)cc1
1.05	i	O=C(NC(=S)Nc1ccc(Cc2ccncc2)cc1)c1ccccc1Cl
1.14	i	CCC(=O)Nc1ccccc1C(=O)N1CCN(Cc2ccccc2)CC1
0.44	i	O=C(CC(c1ccccc1)c1ccccc1)N1CCN(c2ccccn2)CC1
-0.66	i	COc1ccc(C(O)(C2CCCCC2)C(CN2CCOCC2)c2ccccc2)cc1 (stereo not drawn)
-0.43	i	O=C(CC(Cc1ccccc1)c1ccco1)NCc1ccco1 (stereo not drawn)
-0.53	i	CC1CC(C)(C)NCCNC(C)CC(C)(C)NCCN1 (stereo not drawn)
0.9	i	COc1ccc2nc(C)cc(SCC(=O)N/N=C/c3ccc(O)c(O)c3)c2c1
0.9	i	CCOC(=O)c1ccccc1NC(=O)CSc1nc2ccncc2[nH]1
1.13	i	Cn1c(CCc2ccccc2)nnc1SCC(=O)N1CCCC1
0.79	i	COc1cc(SC)ccc1C(=O)OCC(=O)N1CCCC1
3.64	i	CN1CCN(C(=O)CN(C)S(=O)(=O)c2ccc(F)cc2)CC1
-1.21	i	COc1ccc(-c2ncncc2-c2ccc(Cl)cc2)c(O)c1
-0.3	i	Cc1ccc(NC(=O)Cc2nnc(SCC(=O)Nc3ccccc3)n2C)cc1
0.56	i	Cc1occc1C(=O)NNC(=S)NCc1ccc(Cl)cc1
-0.19	i	O=C(CC1C(=O)NCCN1CC1CCCCC1)NCc1ccc(Cl)cc1 (stereo not drawn)
1.32	i	CC(C)CC(=O)N1CCN(S(=O)(=O)c2ccccc2)CC1
-0.2	i	COc1ccc(N(C(=O)Cn2nnc(-c3ccc(Cl)cc3)n2)C(C(=O)NCC2CCCO2)c2ccncc2)cc1 (stereo not drawn)

Ordered by length of the SMILES (smallest number first): five of the compounds above.
KCNQ2 inh baseline	KCNQ2 inh	SMILES
1.13	i	Cn1c(CCc2ccccc2)nnc1SCC(=O)N1CCCC1
3.64	i	CN1CCN(C(=O)CN(C)S(=O)(=O)c2ccc(F)cc2)CC1
-0.66	i	COc1ccc(C(O)(C2CCCCC2)C(CN2CCOCC2)c2ccccc2)cc1 (stereo not drawn)
1.84	i	Cc1cc(C)c(S(=O)(=O)NCC(c2ccc3c(c2)OCO3)N2CCOCC2)c(C)c1 (stereo not drawn)
0.21	i	COc1cc(/C=C2/SC(=S)N(CC(=O)O)C2=O)ccc1OCC(=O)Nc1ccc(C)c(C)c1

(next part)
KCNQ2 inh baseline	KCNQ2 inh	SMILES
-0.25	i	COC(=O)c1ccccc1S(=O)(=O)N1Cc2cc([N+](=O)[O-])ccc2Oc2ccccc21
-1.47	i	Cc1onc(-c2c(F)cccc2Cl)c1C(=O)N1CCN(c2ncc(Br)cn2)CC1
-0.02	i	Cc1ccc(NC(=O)COc2coc(CN3CCN(Cc4ccccc4)CC3)cc2=O)cc1
0.03	i	CCOc1ccccc1CN1CCCC(C(=O)c2ccc(OC)c(OC)c2)C1 (stereo not drawn)
0.85	i	COc1cccc(-c2cc(C(=O)N3CCN(C(=O)c4ccco4)CC3)on2)c1
0.03*	-6.43*	COc1ccc(/C=C2\Sc3ccc(C(=O)NCCN4CCCCCC4)cc3N(C)C2=O)cc1
-0.07	i	O=C1CN(C(=O)c2ccc(Br)o2)C(c2ccccc2)c2cc(F)ccc2N1 (stereo not drawn)
-0.09	i	COc1ccc(Cl)cc1C(=O)NNC(=O)c1nc2nc(C)cc(C)n2n1
-0.27	i	COC(=O)CC(NC(=S)NC(=O)c1ccccc1)c1ccc(Br)cc1 (stereo not drawn)
-1.71	i	Clc1ccccc1CSc1nncn1NC/C=C/c1ccccc1
-1.38	i	CCOc1ccc(-n2c(SCC(N)=O)nnc2-c2ccco2)cc1
0.3	i	COCCOC(=O)C1=C(C)Nc2ncnn2C1c1ccc(F)cc1 (stereo not drawn)
0.06	i	CC1SC(c2ccccc2Cl)NC1=O (stereo not drawn)
0.15	i	Cc1ccccc1C(=O)N1CCC(C(=O)Nc2ccc(S(=O)(=O)N3CCCCC3)cc2)CC1
-0.49	i	Cc1ccc(NC(=S)N=Nc2c(O)n(C)c3ccc(S(=O)(=O)N4CCOCC4)cc23)cc1C
0.88	i	[N-]=[N+]=N[C@@H](CCN1CC[C@H](O)CCC1=O)c1ccccc1
0.05	i	O=C(Nc1sc2c(c1C(=O)NCC1CCCO1)CCCC2)c1cccs1 (stereo not drawn)
-1.35	i	NC(=O)NC(=O)CC1S/C(=N/N=C/c2ccccc2)NC1=O (stereo not drawn)
0.95	i	O=C(Nc1ccccc1Cl)N(Cc1nc2ccccc2c(=O)[nH]1)Cc1cccs1
2.35	i	CN(Cc1ccccc1Cl)C(=O)c1cc2ccccc2o1
-0.92	i	CCCn1c(SCC(=O)NNC(=O)c2ccc(C)cc2)nnc1C(C)C
0.94	i	O=C(CN1CCc2cc3c(cc2C1)OCCCO3)Nc1ccc(F)cc1
0.04	i	Cn1ccnc1Sc1nnnn1-c1ccccc1
0.08	i	C/C(=N/NS(=O)(=O)c1ccc(CC(C)C)cc1)c1ccncc1
1.42	i	COC(=O)c1c(-c2ccc(OC)c(OC)c2)csc1N

Other structures.
KCNQ2 inh baseline	KCNQ2 inh	SMILES
1.81	i	Cc1c(C)n(CCC#N)c2ccc(Cl)cc12
0.3	i	CC(C)Oc1ccc(C(CC(=O)NCCCN(C)C)c2ccc(F)cc2)cc1 (stereo not drawn)
-2.72	i	CCOC(=O)CCSCC(=O)N1N=C(c2cccs2)CC1c1ccc(C)cc1 (stereo not drawn)
0.54	i	COc1ccc(-n2ncc3c2CC(C)(C)CC3NC(=O)CCc2c(C)nn(C)c2C)cc1 (stereo not drawn)
0.12	i	COc1ccccc1CNC(=O)CN(CCc1ccccc1)S(C)(=O)=O
0.74*	-5.68*	CC(C)N(C(=O)COc1ccc(Br)cc1Cl)C(C)C
-0.3	i	COc1cc2[nH]c3c(N4CCN(c5ccccn5)CC4)ncnc3c2cc1OC
0.18	i	c1ccc(Cn2ccc(-c3cnc(-c4ccccc4)s3)n2)cc1
-0.39	i	O=C(CNc1ccccc1C(=O)O)c1ccccc1
0.24	i	CCOc1cccc2c1OC1(C)CC2NC(=O)N1Cc1ccccc1 (stereo not drawn)
-0.12	i	CCc1ccc(OCC(=O)NC(NC(=S)Nc2ccc(C)cc2C)C(Cl)(Cl)Cl)cc1 (stereo not drawn)
-0.01	i	Cc1ccc(C(=O)NCC(=O)Nc2ccc3c(c2)OCCO3)cc1
-0.29	i	C#CCn1c(S(=O)(=O)Cc2ccc(F)cc2)nc(-c2ccccc2)c1-c1ccccc1
1.34	i	Cc1ccccc1-n1c(SCC(=O)Nc2ccc3c(c2)OCO3)nnc1-c1ccccn1
0.81	i	COc1ccc(-c2nnc(SC(=O)N3c4ccccc4Sc4ccccc43)o2)cc1
0.79	i	CCc1nnc(NC(=O)c2cccc(S(=O)(=O)N(C)c3ccc(OC)cc3)c2)s1
-0.88	i	Cc1csc(NC(=O)c2ccc3c(=O)n4c(nc3c2)CCCCC4)n1
-0.83	i	CSc1ccccc1NC(=O)c1cc(S(=O)(=O)N(C)C)ccc1N1CCCC1
-0.48	i	COCCNC(=O)[C@@H]1CCCN1C(=O)C1CCN(S(=O)(=O)c2ccc(C)cc2)CC1

High-throughput results: PubChem BioAssay, Johns Hopkins Ion Channel Center

Only part of the results is shown (hit frequency here may not be typical).
